Assay outcomes as filed in PubChem BioAssay.
MT1-MMP promoter: MT1-MMP gene expression reporter suppression – cell-based, luciferase reporter, luminescence (AID 618) | 87,000 compounds, 0.62% hits | MT1-MMP promoter luciferase reporter cells, luminescence | calls from a first round at 10 µM; hits with a dose series show EC50 in µM;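 active means over half of the reporter light lost at 10 µM or EC50 under 50 µM; inactive means the rest and hits that failed the dose series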;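 further: actives suppress MT1-MMP promoter-driven transcription so potencies describe inhibitors; HT1080 fibrosarcoma cells; overnight exposure; toxic or luciferase-blocking compounds were not removed from the actives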
Calls only; i = inactive; + = active, no number.

SMILES	MT1-MMP promoter
Cc1nn(C(C)(C)C)c(OC(=O)c2ccco2)c1Sc1ccccc1	i
O=C(Cc1ccccc1)NCC1CCCO1 (stereo unspecified)	i
O=C(O)COc1c(-c2ccccc2)oc2ccccc2c1=O	i
CC1CCc2cc(F)ccc2N1C(=O)C1(C)CC1(Cl)Cl (stereo unspecified)	i
O=C(Nc1ccc(-c2nc3c(ccc4ccccc43)o2)cc1)c1ccco1	i
Cc1ccccc1CSCCNS(C)(=O)=O	i
CCN(CC)CCCn1c(=S)[nH]c2cc(OC)c(OC)cc2c1=O	i
CC(=O)c1ccc(OC(=O)C(CCS(C)(=O)=O)N2C(=O)c3ccccc3C2=O)cc1 (stereo unspecified)	i
COc1ccc2cc3cc(C(=O)N4CCN(c5ccccc5)CC4)oc3nc2c1	i
CCC(C)NC(=O)CCc1c(C)nc2nc(-c3cc(OC)cc(OC)c3)nn2c1C (stereo unspecified)	i
CCN(CC)C(=O)CN(c1ccc(C)cc1)S(=O)(=O)c1ccc(SC)cc1	i
COCc1cc(C)nc(N2CCN(Cc3ccccc3)CC2)c1C#N	i
O=C(CN(c1ccc(F)cc1)S(=O)(=O)c1ccc2c(c1)OCCO2)NCc1ccncc1	i
CCOc1ccc(-n2c(N)c(C(=O)NCc3cccnc3)sc2=S)cc1	i
CCOc1ccc(-c2c(=O)n(OCc3ccccn3)c3ccccc3[n+]2[O-])cc1	i

Entries shown so far containing four or more nitrogen atoms, in the order listed:
SMILES	MT1-MMP promoter
CCC(C)NC(=O)CCc1c(C)nc2nc(-c3cc(OC)cc(OC)c3)nn2c1C (stereo unspecified)	i
COCc1cc(C)nc(N2CCN(Cc3ccccc3)CC2)c1C#N	i
CCOc1ccc(-n2c(N)c(C(=O)NCc3cccnc3)sc2=S)cc1	i

(further entries)
SMILES	MT1-MMP promoter
Cc1ccc(S(=O)(=O)N=S(CC2CC2(Cl)Cl)CC2CC2(Cl)Cl)cc1 (stereo unspecified)	i
CC(C)c1cc(C(=O)Nc2cccc(C(F)(F)F)c2)no1	i
Cc1cccc(NC(=O)c2cc(NC(=O)c3ccccc3)ccc2N2CCCCC2)c1	i
O=C(CCCn1c(=O)[nH]c2cc(Cl)ccc2c1=O)NC1CCCCCC1	i
CSc1nc(C)cc(SCC(=O)Nc2ccccc2)n1	i
Cc1cccc(Nc2nc(N3CCCC3)nc(N3CCCC3)n2)c1	i
O=C(Nc1ccccc1N1CCN(C(=O)c2ccc(Cl)cc2)CC1)c1cc(Br)ccc1Cl	i
Cc1ccc(N(CC(O)Cn2c3ccccc3c3ccccc32)S(C)(=O)=O)c(C)c1 (stereo unspecified)	i
O=C(NCc1ccccc1)[C@H]1C[C@@H]1[C@H](NP(=O)(c1ccccc1)c1ccccc1)c1ccccc1	i
CC(C)n1c(-c2ccc(C(C)(C)C)cc2)n[nH]c1=S	i
Cc1cc(C(=O)N[C@H](c2ccccc2)[C@@]2(C)C[C@@H]2[C@@H](C)C(=O)Nc2ccc3ccccc3c2)no1	i
Cc1ccccc1C(=O)NNC(=O)Cc1cccc2ccccc12	i
CCOc1ccc2c(C)c(Cl)c(=O)oc2c1	i
CCCCSc1ccc(NC(=O)c2cccnc2)cc1	i
CCCNC(=O)C(=O)NCCC1=CCCCC1	i
CCC1=Nc2cc(C(=O)NCCCOC)ccc2Sc2ccccc21	+
C=CCn1c(CCNC(=O)c2cccs2)nnc1SCC(=O)c1cccc([N+](=O)[O-])c1	i
COC(=O)c1ccc(C(NC(=O)OCc2ccccc2)/C(F)=C/[C@@H](C)C(=O)NCc2ccc(OC)c(OC)c2)cc1 (stereo partly specified)	i
COC(=O)[C@@]1(Cc2ccccc2)[C@H]2c3cc(C(=O)N4CCCC4)n(C)c3C[C@H]2CN1C(=O)c1ccccc1	i
COc1ccc(NC(=O)CSc2nnc(-c3cccnc3)o2)cc1	i
COc1ccc(N/C(=C(/C(Cl)=C(Cl)Cl)[N+](=O)[O-])n2nnc3ccccc32)cc1	i
CN(C)c1ccc(NC(=O)CSc2nnc(-c3cccs3)n2Cc2ccco2)cc1	i
COCCNC(=O)C1CC(c2ccc(F)cc2)=NO1 (stereo unspecified)	i
C/C(=C\[C@@H](NP(=O)(c1ccccc1)c1ccccc1)c1ccccc1)CO[Si](c1ccccc1)(c1ccccc1)C(C)(C)C	i
Cc1c(NC(=O)c2cccs2)cccc1C(=O)O	i
COC(=O)[C@@]1(Cc2ccccc2)[C@H]2c3cc(C(=O)N(C)C)n(Cc4ccc(O)c(OC)c4)c3C[C@H]2CN1C(=O)c1ccccc1	i
Cc1ccc(C(=O)c2cc3ccccc3o2)cc1C	i
COc1ccc(CC(=O)n2nc(-c3ccc(Cl)cc3)nc2NCc2ccco2)cc1	i
COC(=O)[C@@H]1C[C@H]1[C@@H](NC(C)=O)c1ccccc1	i
CCOC(=O)C1=C(N)Oc2c(c(=O)[nH]c3ccccc23)C1c1ccccc1 (stereo unspecified)	i

Structures shown so far that contain a nitro group on carbon:
SMILES	MT1-MMP promoter
C=CCn1c(CCNC(=O)c2cccs2)nnc1SCC(=O)c1cccc([N+](=O)[O-])c1	i
COc1ccc(N/C(=C(/C(Cl)=C(Cl)Cl)[N+](=O)[O-])n2nnc3ccccc32)cc1	i

Later entries
SMILES	MT1-MMP promoter
CC(/C=C/c1cccs1)=C\C(=O)O	i
O=C(C1=C(O)C(=O)N(Cc2ccco2)C1c1ccccc1)c1cccs1 (stereo unspecified)	i
O=C(NCC(=O)N(CC1CCCO1)C1(C(=O)NC2CCCCC2)CCCCC1)c1ccccc1 (stereo unspecified)	i
CCOc1ccc(-n2c(N)c(C(=O)NCC3CCCO3)sc2=S)cc1 (stereo unspecified)	i
COC(=O)[C@@]1(Cc2ccc(F)cc2)[C@H]2c3cc(C(=O)N4CCCC4)n(CCSCCO)c3C[C@H]2CN1C(=O)c1ccccc1	i
COC(=O)[C@@H]1C[C@@]1(C)[C@@H](NC(=O)OCc1ccccc1)c1ccccc1	i
Cn1c(=O)c2c(nc(Oc3ccc4ccccc4c3)n2C)n(C)c1=O	i
CC1(c2ccc(Cl)c(Cl)c2)NC(=S)N2C1NC(=S)N2c1ccccc1 (stereo unspecified)	i
Cc1ccc(NC(=O)Nc2ccccc2C(=O)NCc2ccccc2)cc1	i
Cn1nc(-c2ccccc2)c(CSc2ccccc2Cl)c1Cl	i
CCN(CC)c1ccc(-n2c(C)cc(C=O)c2C)cc1	i
CCOC(=O)c1nnc(-c2cccs2)nc1Oc1ccccc1C(=O)OC	i
NCCn1c(-c2ccccc2)cc(C(=O)O)c1-c1ccccc1F	i
CCOC(=O)C1=C(C)N(C)C(C)=C(C(=O)OCC)C1c1ccc(C(=O)OC)cc1	i
N#Cc1ccc(N=c2ssnc2Cl)cc1	i

A draw from above in order of length of the SMILES, falling.
SMILES	MT1-MMP promoter
O=C(NCC(=O)N(CC1CCCO1)C1(C(=O)NC2CCCCC2)CCCCC1)c1ccccc1 (stereo unspecified)	i
CCOc1ccc(-n2c(N)c(C(=O)NCC3CCCO3)sc2=S)cc1 (stereo unspecified)	i
CC(/C=C/c1cccs1)=C\C(=O)O	i

The results go on:
SMILES	MT1-MMP promoter
CCOc1ccccc1NC(=O)CCC(=O)Nc1ccccc1OCC	i
CC(NC(=O)c1ccc(N2CCCC2=O)cc1)c1ccccc1 (stereo unspecified)	i
N#Cc1ccc(Oc2nc(Nc3ccc(F)cc3)nc(N3CCCC3)n2)cc1	i
C=CCn1c2ccccc2c2nnc(SCC(=O)Nc3cc(C)on3)nc21	i
Cc1cccc(N2CCN(C(=O)c3ccc4nc(-c5ccco5)c(-c5ccco5)nc4c3)CC2C)c1 (stereo unspecified)	i
CN(C)/C=N/c1cc(=O)[nH]c(=O)n1Cc1ccccc1	i
O=C(Cc1ccc(F)cc1)NCCc1ccc(F)cc1	i
CCCOc1ccc(C(C(=O)OCCN(CC)CC)c2ccccc2)cc1 (stereo unspecified)	i
CC(C)C(NC(=O)c1ccc(C(C)(C)C)cc1)C(=O)O (stereo unspecified)	i
CCOc1ccc(N/C(C)=C/C(=O)c2ccc(C)o2)cc1	i
CCOC(=O)C1=C(C)NC(=O)NC1C(C)C (stereo unspecified)	i
COC(=O)[C@@]1(Cc2ccc(F)cc2)[C@H]2c3cc(C(=O)N4CCCC4)n(Cc4ccc(OC(F)(F)F)cc4)c3C[C@H]2CN1C(=O)c1ccccc1	i
CCOC(=O)CSc1ncc(-c2ccccc2)nn1	i
O=C(C1CCCN(Cc2ccccc2C(F)(F)F)C1)N1CCCCC1 (stereo unspecified)	i
COc1cccc(N/C(SC)=C(/C#N)C(N)=O)c1	i
COc1c(O)c(O)cc2c1oc1c3cc(C)ccc3oc(=O)c21	i
O=C(CN(c1ccccc1F)S(=O)(=O)c1ccccc1)NC1CCCCCC1	i
CCOC(=O)Nc1ccc2c(c1)N(C(=O)C(C)N1CCCC1)c1ccccc1CC2 (stereo unspecified)	i
COC(=O)N1[C@H](C)C=C[C@]1(Cc1ccccc1)C(=O)O	+
Cc1ccc(Cc2cnc(NC(=O)C3CCCO3)s2)cc1 (stereo unspecified)	i
O=c1c(O)c(-c2cccs2)oc2ccc(Cl)cc12	i
O=C(CN1CCN(Cc2ccccc2F)C1=O)NCc1ccco1	i
COC(=O)c1c(C)n(-c2ccc(C)cc2)c2ccc(O)cc12	i
CC1(C)NC(=O)N(CCCCSc2ccc(Cl)cc2)C1=O	i
Cc1ccc(CN2CCN(c3ncccn3)CC2)o1	i
Cc1ccc(-n2c(Cc3cccs3)nnc2SCC(N)=O)cc1	i
Oc1ccccc1-c1n[nH]c(=S)n1Cc1ccco1	i
COc1ccc(OC)c(-n2c(CNC3CCN(Cc4ccccc4)CC3)nc3ccccc3c2=O)c1	i
c1ccc(Cc2nc3ccccc3o2)cc1	i
COC(CNC(=O)c1cc(C)nn1-c1ccccc1)OC	i
COc1ccc(S(=O)(=O)N(C)CC(=O)Nc2cccc(C(C)=O)c2)cc1C	i
Cc1ccccc1C(=O)NNC(=O)Cc1ccccc1	i
Cn1c(CNC(=O)c2ccc(Cl)cc2)nnc1SCC(=O)Nc1sc2c(c1C#N)CCCC2	i
CC1(C)CC(=O)C(C=Nc2ccccc2Sc2ccccc2)=C(O)C1	i
COCCNC(=O)CN(Cc1ccc(Cl)cc1)S(C)(=O)=O	i
CC(C)Cn1c(N)c(C(=O)COC(=O)c2cc(C(F)(F)F)nc3ccccc23)c(=O)n(C)c1=O	i
CC(C)(C)C(=O)Nc1cc2nn(-c3ccccc3)nc2cc1Cl	i
Cc1ccc(C(=O)CN(C(=O)c2ccc(Cl)c(Cl)c2)N2C(=O)C3CCCCC3C2=O)cc1 (stereo unspecified)	i
CC1CSc2nc3sc4c(c3c(=O)n21)CCCC4 (stereo unspecified)	i
CCOC(=O)C1=C(C)N(CCCC(=O)O)C(=O)NC1c1ccc(Cl)cc1 (stereo unspecified)	i
CCC1=C(OC(=O)N(CC)CC)N2C(=O)OC(=NCC(=O)OC)[C@]2(Cc2ccccc2)[C@H]2C1=CC[C@H]1C(=O)N(C)C(=O)[C@H]12	i
CCCCCOC(=O)C1=C(C)Nc2nnnn2C1c1ccccc1Cl (stereo unspecified)	i
CCC/C=C(\CCC)C(NC(=O)c1ccc(C(F)(F)F)cc1)c1ccccc1 (stereo unspecified)	i
CCCC/C=C/C(NC(=O)OCc1ccccc1Cl)c1ccccc1 (stereo unspecified)	i
CN(C)CCOC(=O)C12CC3(C)CC(C)(CC(C)(C3)C1)C2	i
CCOC(=O)C1=C(CN2CCc3ccccc32)NC(=O)NC1c1cccc([N+](=O)[O-])c1 (stereo unspecified)	i
CCCCOC(=O)c1c(C)oc2ccc(NS(=O)(=O)c3ccc4c5c(cccc35)C(=O)N4)cc12	i
Cc1ccc(NC(=O)c2sccc2-n2cccc2)c(C)c1	i
CCC(=O)OCCNc1cc(Sc2nc3ccccc3s2)c2nonc2c1[N+](=O)[O-]	i
O=C(CN1CCCN(Cc2ccc(F)cc2Cl)C1=O)NC1CCCCCCC1	i
CCCOc1ccc(N2C(=O)CC(N(C(=O)c3ccco3)c3ccc(OCCC)cc3)C2=O)cc1 (stereo unspecified)	i
CC(C)(Cc1nc2ccccc2[nH]1)C(=O)O	i
CSc1ccccc1NC(=O)Nc1ccc(F)c(Cl)c1	i
Cc1cccc(S(=O)(=O)CC(=O)Nc2nc(-c3ccccc3)cs2)c1	i
COC(=O)[C@@H]1C[C@@]2(O)[C@@H](O)[C@@H](O)[C@@H](O)C[C@H]2N1CC1CCCCC1	i
COC(=O)[C@H](C)[C@@H]1C[C@@]1(C)[C@@H](NC(=O)OCc1ccccc1)c1ccccc1	i
Cc1ccc(NC(=S)NCc2cccs2)cc1	i
COC(=O)N1[C@H](Cc2ccccc2)C=C[C@]1(C)C(=O)NCc1ccc(C)o1	i
Cc1ccc(/C=C2/SC(=S)N(CC(=O)Nc3ncc(Cc4ccc(C)cc4)s3)C2=O)cc1	i
COC(=O)[C@@H]1C[C@H]2CC[C@H](O)C[C@H]2N1Cc1ccccc1OC(=O)c1cccs1	i

A portion of the results above, for reference:
SMILES	MT1-MMP promoter
CCOC(=O)C1=C(CN2CCc3ccccc32)NC(=O)NC1c1cccc([N+](=O)[O-])c1 (stereo unspecified)	i
CCCCOC(=O)c1c(C)oc2ccc(NS(=O)(=O)c3ccc4c5c(cccc35)C(=O)N4)cc12	i

Next section
SMILES	MT1-MMP promoter
O=C(CCSc1ccccc1)Nc1nccs1	i
Cn1c(N)c(C(=O)COC(=O)c2cc(C(F)(F)F)nc3ccccc23)c(=O)n(Cc2ccccc2)c1=O	i
CC1(C(=O)NCc2cc(F)cc(C(F)(F)F)c2)C=CC2(CCCCC2)N1C(=O)c1ccccc1 (stereo unspecified)	i
C/C(=C\C1CCCCC1)C(NC(=O)c1cccnc1)c1ccc(-c2ccccc2)cc1 (stereo unspecified)	i
CCCNC(=O)C(=O)c1cccn1-c1ccsc1C(=O)OC	i
O=C(CSc1ccsc1[N+](=O)[O-])NCCc1ccccc1	i
C=C(C)c1cccc(C(C)(C)NC(=O)N2CCC(C)CC2)c1	i
COC(=O)CNC(=O)[C@@]1(C)C=C[C@@H](Cc2ccccc2)N1C(=O)OC	+

The list is partial (hit frequency here may not be typical).
